KAT2A inh: inhibitors of human GCN5L2 histone acetyltransferase. Q92830. GCN5L2 HAT assay, ThioGlo1 CoA-SH fluorescence. Potency, µM (titrated, usually from 58.9 µM), inactives show at the top dose activity change, negative = inhibition, most hits filed as inhibitors. 390,000 tested, 0.21% active; active = well fitted inhibition curve with a large enough effect; inconclusive = small, poorly fitted or top-dose-only effect, or another doubt; inactive = no such curve, though single readings can be large or run the other way
Target sequence (Q92830 whole entry, looked up): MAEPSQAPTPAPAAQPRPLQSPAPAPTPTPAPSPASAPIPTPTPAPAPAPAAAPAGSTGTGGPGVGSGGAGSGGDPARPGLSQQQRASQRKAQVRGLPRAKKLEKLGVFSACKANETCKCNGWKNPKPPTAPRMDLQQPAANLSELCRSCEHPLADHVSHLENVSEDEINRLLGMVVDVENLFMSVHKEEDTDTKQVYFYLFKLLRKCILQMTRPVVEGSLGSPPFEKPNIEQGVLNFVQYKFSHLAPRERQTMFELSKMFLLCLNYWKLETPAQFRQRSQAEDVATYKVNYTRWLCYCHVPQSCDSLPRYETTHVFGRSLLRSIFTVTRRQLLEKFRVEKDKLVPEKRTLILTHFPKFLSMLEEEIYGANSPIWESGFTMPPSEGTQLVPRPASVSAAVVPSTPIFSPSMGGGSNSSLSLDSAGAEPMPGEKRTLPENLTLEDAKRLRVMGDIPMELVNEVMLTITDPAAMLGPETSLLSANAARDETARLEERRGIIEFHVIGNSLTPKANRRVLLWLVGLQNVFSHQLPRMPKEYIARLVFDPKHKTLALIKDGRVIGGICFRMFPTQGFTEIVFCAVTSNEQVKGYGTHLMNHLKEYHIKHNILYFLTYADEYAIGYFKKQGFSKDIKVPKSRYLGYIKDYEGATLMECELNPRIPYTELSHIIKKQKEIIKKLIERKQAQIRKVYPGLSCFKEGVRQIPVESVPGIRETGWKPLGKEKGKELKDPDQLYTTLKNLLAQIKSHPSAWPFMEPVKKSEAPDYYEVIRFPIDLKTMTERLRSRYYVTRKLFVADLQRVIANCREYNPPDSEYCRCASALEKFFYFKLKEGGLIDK
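qHTS, 1536-well. 20nM enzyme, pH 7.5 HEPES/EDTA/Tween-20 buffer; 15 min compound preinc., RT. Start: 75uM H3(1-25), 70uM AcCoA, 50uM ThioGlo1. Read Ex340/Em540 at t=0 (autofluorescence flag) and t=20 min.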
Starred values were filed as active, the others as inactive; ? = inconclusive; & = joins results of further samples; [ ] = remark or other dose. % is scaled to controls: 0 for no effect and ±100 for the full control effect; potency is read from the fitted curve at half-maximal effect.

no.	smiles	KAT2A inh
1	NC(=O)c1ccccc1NC(=O)c1ccoc1	-1%
2	O=C(NC(=S)Nc1ccc(S(=O)(=O)NC2CCCCC2)cc1)c1cccs1	1%
3	CN1CCN(C(=O)c2c(NC(=O)c3ccco3)sc3c2CCC(C(C)(C)C)C3)CC1 (configuration not stated)	-6%
4	CN(Cc1ccccc1)S(=O)(=O)c1ccc(OCC(=O)N2CCOCC2)cc1	-5%
5	Cc1ccc(Cl)cc1NC(=O)NCc1cccn1Cc1ccc(F)cc1	-1%
6	Cc1cc(=O)[nH]c(SCC2(O)C3CC4CC(C3)CC2C4)n1 (configuration not stated)	-13%
7	CCN(CC)C(=O)CSc1nc2ccccc2c(=O)[nH]1	-9%
8	COc1ccc2nc(CC(C)(C)CC(=O)O)c[n+]([O-])c2c1	-1%
9	Cc1c(C(=O)Nc2ccc3oc(-c4cccnc4)nc3c2)oc2ccccc12	0%
10	O=C(C[n+]1cn(C(F)F)c2ccccc21)c1ccc(Br)cc1	-7%
11	O=C(OCC(=O)c1ccc(S(=O)(=O)N2CCCC2)cc1)C1=COCCO1	-4%
12	CN(C)C(=O)CSc1ccccc1C(=O)OCC(=O)NC1CC1	0%
13	CCN1CCC(N(Cc2ccc(F)cc2)C(=O)Nc2cc(C)ccc2C)CC1	0%
14	COc1ccc(C)cc1-n1c(C)cc(C=O)c1C	-7%
15	O=C(CO/N=C/c1ccccc1OC(F)F)NC1CCCCC1	-2%
16	Cn1nc(C(F)(F)F)c(C(=O)Nc2ccc(F)cc2F)c1Sc1ccc(C(F)(F)F)cc1	-29%
17	Cc1nnc(SCc2nnc(-c3ccccc3Br)o2)n1-c1ccccc1	-1%
18	Cc1cc(C)nc(NS(=O)(=O)c2ccc(NC(=O)CSc3nc(-c4ccccc4)c(C#N)c(=O)[nH]3)cc2)n1	-8%
19	Cc1cccc(NC(=O)c2nc[nH]c2C(=O)N[C@@H](CC(C)C)C(=O)OCc2ccccc2)c1	-15%
20	CC(C)COc1ccc(S(=O)(=O)NNC(=O)c2cc3ccccc3o2)cc1	-8%
21	COc1cc(OC)c(/C=N/NC(=O)c2ccncc2)cc1Br	-6%
22	CC1CCCN(C(=O)c2cc3ccccc3cc2O)C1 (configuration not stated)	-2%
23	Nc1nc(Cl)nc2c1ncn2[C@@H]1O[C@H](CO)[C@@H](O)[C@H]1O	-5%&0%&0%&5%
24	Cc1cc(Nc2ccc(F)c(Cl)c2)n2ncnc2n1	-3%
25	COc1ccc(C)cc1S(=O)(=O)N(C)CC(=O)NC1CCCCC1	-5%
26	COc1cc(/C=N/N=C(/N)c2nonc2N)cc(Br)c1OCc1cccc(C)c1	-9%
27	CCCCC(=O)NC(=S)NNC(=O)CC	-13%
28	COc1ccc(CCn2c(-c3ccncc3)n[nH]c2=S)cc1OC	-9%
29	O=C(NCCSCc1ccc(Cl)cc1Cl)c1ccc(CN2CCOCC2)cc1	-8%
30	Cc1nn(CCCNC(=O)C2CCCO2)cc1Br (configuration not stated)	-1%
31	O=C(NCC1CCCO1)c1cccc2ccccc12 (configuration not stated)	0%
32	CCOC(=O)[C@H]1[C@H]2COc3ccc(C)cc3[C@@H]2N2C(=O)CN(Cc3ccc(F)cc3)C(=O)[C@@]12C	0%
33	CSc1cccc(NC(=O)COc2cccc3ccccc23)c1	-18%
34	Cn1c(CNC(=O)CNC(=O)c2ccccc2)cc(=O)n(C)c1=O	-3%
35	Cc1cc(C)n(-c2nc(C(F)(F)F)nc3ccccc23)n1	-2%
36	CCc1c(C)nc(N)n2c(SCC(=O)Nc3ccccc3)nnc12	?
37	CC(C)c1ccccc1NC(=O)COC(=O)COc1ccccc1[N+](=O)[O-]	-3%
38	Cc1ccc(S(=O)(=O)N(C)c2ccc(OCC(=O)Nc3nc4ccccc4s3)cc2)cc1	-7%
39	Cc1ccccc1C(=O)Nc1nnc(S(=O)(=O)N2CCCc3ccccc32)s1	-2%
40	Cc1ccc(NC(=O)C2C3C=CC4(O3)C2C(=O)N(CCCN2CCOCC2)C4C(=O)NC2CCCCC2)cc1Cl (configuration not stated)	-2%
41	COCCSc1nnc(NC(=O)C2CC(=O)N(c3ccccc3)C2)s1 (configuration not stated)	0%
42	Cc1cccc(C)c1NC(=O)C1NC(=O)CC1c1ccccc1 (configuration not stated)	2%
43	CC1CCN(C(=O)c2ccc(NS(=O)(=O)c3cccs3)cc2)CC1	-7%
44	Cc1ccc(C(=O)O)cc1S(=O)(=O)N1CCCC1	1%
45	CCCCC1=NN(C(=O)c2ccncc2)C(O)(C(F)(F)F)C1 (configuration not stated)	-3%
46	O=C(NCCc1csc(-c2ccc(F)cc2)n1)c1cccs1	3%
47	CCOC(=O)c1c(C)n(C)c2ccc(OC)c(NS(=O)(=O)CC)c12	5%
48	FC(F)(F)Oc1ccc(NC(=S)NCc2ccccc2)cc1	-2%
49	O=C1NC(O)=NC1(c1ccccc1)c1ccccc1	?
50	Cn1c(=O)cc(SCC(=O)N2CCN(Cc3ccc4c(c3)OCO4)CC2)c2ccccc21	-5%
51	COc1cc2cc(C(=O)O)n(C)c2c(OC)c1OC	0%
52	Cn1ncc(Cl)c1C(=O)NNC(=O)Nc1cccc2ccccc12	-2%
53	CCC1(C)Cc2c(sc3nc(SCC(=O)c4ccccc4)[nH]c(=O)c23)CO1 (configuration not stated)	-6%
54	COCCn1c(SCC(=O)NC2CCCC(C)C2C)nc2ccccc2c1=O (configuration not stated)	-4%
55	CCN(C[C@H]1N[C@@](Cc2ccccc2)(C(=O)OC)[C@H]2C(=O)N(C)C(=O)[C@@H]12)C(=O)c1ccc(C(C)(C)C)cc1	1%
56	O=C(NC1CCOC1)c1cc(COc2cccc(C(F)(F)F)c2)on1 (configuration not stated)	-8%
57	O=c1oc2ccccc2c2c1SC(C(F)(F)F)C2 (configuration not stated)	-10%
58	CCC(CC)C(=O)Nc1nnc(SCc2cc(=O)c3ccccc3[nH]2)s1	-6%
59	Cc1ccccc1NC(=O)CN1C(=O)C(C)(C)c2ccccc21	-3%
60	Cn1c(=O)cc(OCCCC(=O)N2CCN(Cc3ccc4c(c3)OCO4)CC2)c2ccccc21	-2%

4 entries out of the list above, ordered by the number in KAT2A inh, rising:
no.	smiles	KAT2A inh
27	CCCCC(=O)NC(=S)NNC(=O)CC	-13%
20	CC(C)COc1ccc(S(=O)(=O)NNC(=O)c2cc3ccccc3o2)cc1	-8%
58	CCC(CC)C(=O)Nc1nnc(SCc2cc(=O)c3ccccc3[nH]2)s1	-6%
48	FC(F)(F)Oc1ccc(NC(=S)NCc2ccccc2)cc1	-2%

Reformatted as labelled records: four of the compounds above
44	Cc1ccc(C(=O)O)cc1S(=O)(=O)N1CCCC1
  KAT2A inh: 1%
45	CCCCC1=NN(C(=O)c2ccncc2)C(O)(C(F)(F)F)C1 (configuration not stated)
  KAT2A inh: -3%
46	O=C(NCCc1csc(-c2ccc(F)cc2)n1)c1cccs1
  KAT2A inh: 3%
47	CCOC(=O)c1c(C)n(C)c2ccc(OC)c(NS(=O)(=O)CC)c12
  KAT2A inh: 5%

Following part.
no.	smiles	KAT2A inh
61	Cc1cccc(N(C)S(=O)(=O)c2cc3[nH]c(=O)c(=O)[nH]c3cc2C)c1	-4%
62	COc1ccc(S(=O)(=O)NCCc2csc(-c3cccc(F)c3)n2)cc1OC	-4%
63	COC(=O)CN1C(=O)CSc2ncccc21	-5%
64	COc1ccc([N+](=O)[O-])cc1NC(=O)C(C)OC(=O)Cc1ccc(OC)c(OC)c1 (configuration not stated)	-6%
65	CCOC(=O)[C@H]1[C@H]2COc3ccccc3[C@@H]2N2C(=O)c3ccccc3NC(=O)[C@@]12C	-3%
66	CC(C)CNC(=O)C(=O)Nc1ccc(N(C)C)cc1	0%
67	CCOc1ccc(N2CC(C(=O)NC3CCSC3=O)CC2=O)cc1 (configuration not stated)	-1%
68	O=S(=O)(Nc1cccc(S(=O)(=O)N2CCCC2)c1)c1ccccc1F	-3%
69	COc1ccccc1CNC(=O)CC12CC3CC(CC(Br)(C3)C1)C2	-9%
70	Cc1cccc(Cn2cccc2/C=C2/C(=N)N3C=CSC3=NC2=O)c1	0%
71	O=C(Nc1ccc(S(=O)(=O)Nc2nccs2)cc1)c1ccc(S(=O)(=O)N2CCOCC2)cc1	-3%
72	COc1ccc(C(=O)Nc2ccnn2C2CCN(C(=O)c3cc(C)on3)CC2)cc1	-2%
73	Cn1cccc1P(=O)(c1cccn1C)c1cccn1C	0%
74	COc1cccc(OCCNc2cc(N3CCCCC3)ccc2[N+](=O)[O-])c1	-1%
75	CCOC(=O)c1ccc(NC(=O)C2CC(=O)N(c3ccc(C(C)C)cc3)C2)cc1 (configuration not stated)	1%
76	COc1ccc(Cl)cc1NC(=O)Cn1ncc2c3ccccc3n(C)c2c1=O	-1%
77	COc1ccc([C@@]2(C(C)C)ON(c3ccccc3C(F)(F)F)C2=O)cc1	-2%
78	OCCC1CN(Cc2cccn2-c2ncccn2)CCN1Cc1ccc(F)cc1 (configuration not stated)	-4%
79	S=c1[nH]nc(COc2ccc(Cl)cc2)n1Cc1ccccc1	-4%
80	COC(=O)[C@H]1C(OC)[C@@H](OC(=O)c2cc(OC)c(OC)c(OC)c2)C[C@@H]2CN3CCc4c([nH]c5cc(OC)ccc45)[C@H]3C[C@H]21 (some centres not stated)	?
81	CC(C)(C)c1nnc2sc(SCC(=O)c3ccccc3)nn2c1=O	-17%
82	CC(Oc1ccccc1F)c1nnc(SCC(=O)c2c(N)n(C3CC3)c(=O)[nH]c2=O)o1 (configuration not stated)	-5%
83	CC(=O)Nc1ccc(S(=O)(=O)Oc2cccc(/C=N/N=C3/NC(=O)C(CC(=O)O)S3)c2)cc1 (configuration not stated)	-3%
84	Cc1csc2nc(CNC(=O)c3cccc(C(F)(F)F)c3)cn12	-6%
85	COC(=O)C1=C(C)NC(C)=C(C(=O)OC)C1C(=O)OCC(=O)c1ccc(Br)cc1	-5%
86	O=c1cc(-c2ccccc2)nc2nc(CCc3ccccc3)[nH]n12	-30%
87	O=C(NCc1ccccn1)c1cc2c(ccc3ccccc32)oc1=O	-11%
88	Cc1ccc(S(=O)(=O)N/N=c2\sc3ccccc3n2C)cc1	1%
89	COc1cccc(CN2CC(C(=O)NCCCn3cccn3)CCC2=O)c1 (configuration not stated)	0%
90	O=C(O)C1CCCCC1C(=O)Nc1cc(C(F)(F)F)ccc1Cl (configuration not stated)	11%
91	CC(=O)Nc1cc(NC(=O)CCCC(=O)O)ccc1Cl	0%
92	CC(=O)c1ccc(N2CCN(C(=O)C3(S(=O)(=O)c4ccc(Cl)cc4)CC3)CC2)cc1	-9%
93	CCOC(=O)c1c(N2C(=O)Nc3ccccc3N2O)sc2c1CCCCC2	-4%
94	CNC(=O)NNC(=O)c1csc(Cc2c(Cl)sc3ccc(Cl)cc23)n1	-10%
95	CCCNc1cc(C)c(C#N)c2nc3ccccc3n12	-12%
96	O=C(NNS(=O)(=O)c1ccc(Br)cc1)c1ccncc1	-4%
97	COc1ccc(NC(=O)C(CC(C)C)NC(=O)C2CCCCC2)cc1 (configuration not stated)	-3%
98	CC(NC(=O)c1ccc(N2CCNCC2)c([N+](=O)[O-])c1)C12CC3CC(CC(C3)C1)C2 (configuration not stated)	31%[activator]
99	O=C(Nc1ccc2c(c1)OCCO2)c1ccc(Cl)c(Cl)c1	-7%
100	O=C(NC(=S)Nc1ccc(N2CCOCC2)cc1)c1cccc(Cl)c1	-1%
101	Cc1c(C(=O)O)oc2c1/C(=N\O)CCC2	1%
102	CC(=O)Nc1ccc2nc(C3CCCCC3)[nH]c2c1	-11%
103	Cc1nnc(NC(=O)CSc2nnc3c(n2)[nH]c2ccc(Br)cc23)s1	2%
104	Cc1n[nH]c(C)c1C(=O)CC1(O)C(=O)N(CCc2ccccc2)c2ccc(Br)cc21 (configuration not stated)	-6%
105	CCCc1cc(=O)[nH]c(SCC(=O)Nc2cc3c(cc2C(C)=O)OCO3)n1	?
106	O=C(Oc1ccccc1)c1ccc(-n2cnnn2)cc1	-2%
107	CCc1ccc(NC(=O)c2oc3c(c2C)-c2[nH]ncc2CC3)cc1	-8%
108	O=c1oc(-c2ccccc2[N+](=O)[O-])nc2ccccc12	-12%
109	O=C(NCc1cccs1)c1ccc(CS(=O)Cc2cccc(Cl)c2)o1 (configuration not stated)	-5%
110	Cc1cccc(N2CCN(C(C)C(=O)N3CCc4ccccc43)CC2)c1C (configuration not stated)	-3%
111	COc1ccccc1C(=O)OCCN=C1NS(=O)(=O)c2ccccc21	-3%
112	CCc1ccc(CN2CCC(n3nccc3NC(=O)c3ccc4c(c3)OCO4)CC2)cc1	0%
113	COCCN(C(=O)COC(=O)/C=C/c1cccc(OC)c1)c1c(N)n(CC(C)C)c(=O)[nH]c1=O	-15%
114	C[C@@H]1C[C@@H]2[C@H]3CCC4=CC(=O)C=C[C@]4(C)[C@]3(F)[C@@H](O)C[C@@]2(C)[C@@]1(O)C(=O)CO	-8%
115	Cn1cc(C(=O)c2cccc(Cl)c2Cl)cc1C(=O)O	-7%
116	Cc1cc(C(=O)Nc2ccc3c(c2)OCCO3)c2ccccc2n1	-2%
117	COc1cc(OC)cc(C(=O)Nc2nnc(-c3cccnc3)o2)c1	3%
118	COc1ccc(-c2[nH]ncc2CNC(C)CCn2cccn2)cc1F (configuration not stated)	-8%
119	CSc1nsc(SCC(=O)Nc2cccc(NC(C)=O)c2)n1	-5%
120	Cc1nc2ccc(NC(=O)[C@H](C)N3C(=O)C4CC=CCC4C3=O)cc2s1 (some centres not stated)	-1%

These rows are one share of the data; most or all hits stand in other tables.
